# nsP2pro primary – blocks chikungunya virus nsP2 protease peptide cleavage; 31,000 tested, 1.1% active; Potency, µM (highest dose often 24.9 µM), without a hit: top-dose activity change, negative = inhibition, actives largely listed as inhibitors; Q8JUX6; AID 1964107; FRET peptide cleavage, nsP2pro, fluorescence 1 h; active means well fitted inhibition curve with a large enough effect; inconclusive means small, poorly fitted or top-dose-only effect; inactive means no such curve, though single readings can be large or run the other way; also: nearly all actives have a fitted effect of over 60% in size; a reference inhibitor and vehicle were the controls
# Target sequence (Q8JUX6 whole entry, looked up): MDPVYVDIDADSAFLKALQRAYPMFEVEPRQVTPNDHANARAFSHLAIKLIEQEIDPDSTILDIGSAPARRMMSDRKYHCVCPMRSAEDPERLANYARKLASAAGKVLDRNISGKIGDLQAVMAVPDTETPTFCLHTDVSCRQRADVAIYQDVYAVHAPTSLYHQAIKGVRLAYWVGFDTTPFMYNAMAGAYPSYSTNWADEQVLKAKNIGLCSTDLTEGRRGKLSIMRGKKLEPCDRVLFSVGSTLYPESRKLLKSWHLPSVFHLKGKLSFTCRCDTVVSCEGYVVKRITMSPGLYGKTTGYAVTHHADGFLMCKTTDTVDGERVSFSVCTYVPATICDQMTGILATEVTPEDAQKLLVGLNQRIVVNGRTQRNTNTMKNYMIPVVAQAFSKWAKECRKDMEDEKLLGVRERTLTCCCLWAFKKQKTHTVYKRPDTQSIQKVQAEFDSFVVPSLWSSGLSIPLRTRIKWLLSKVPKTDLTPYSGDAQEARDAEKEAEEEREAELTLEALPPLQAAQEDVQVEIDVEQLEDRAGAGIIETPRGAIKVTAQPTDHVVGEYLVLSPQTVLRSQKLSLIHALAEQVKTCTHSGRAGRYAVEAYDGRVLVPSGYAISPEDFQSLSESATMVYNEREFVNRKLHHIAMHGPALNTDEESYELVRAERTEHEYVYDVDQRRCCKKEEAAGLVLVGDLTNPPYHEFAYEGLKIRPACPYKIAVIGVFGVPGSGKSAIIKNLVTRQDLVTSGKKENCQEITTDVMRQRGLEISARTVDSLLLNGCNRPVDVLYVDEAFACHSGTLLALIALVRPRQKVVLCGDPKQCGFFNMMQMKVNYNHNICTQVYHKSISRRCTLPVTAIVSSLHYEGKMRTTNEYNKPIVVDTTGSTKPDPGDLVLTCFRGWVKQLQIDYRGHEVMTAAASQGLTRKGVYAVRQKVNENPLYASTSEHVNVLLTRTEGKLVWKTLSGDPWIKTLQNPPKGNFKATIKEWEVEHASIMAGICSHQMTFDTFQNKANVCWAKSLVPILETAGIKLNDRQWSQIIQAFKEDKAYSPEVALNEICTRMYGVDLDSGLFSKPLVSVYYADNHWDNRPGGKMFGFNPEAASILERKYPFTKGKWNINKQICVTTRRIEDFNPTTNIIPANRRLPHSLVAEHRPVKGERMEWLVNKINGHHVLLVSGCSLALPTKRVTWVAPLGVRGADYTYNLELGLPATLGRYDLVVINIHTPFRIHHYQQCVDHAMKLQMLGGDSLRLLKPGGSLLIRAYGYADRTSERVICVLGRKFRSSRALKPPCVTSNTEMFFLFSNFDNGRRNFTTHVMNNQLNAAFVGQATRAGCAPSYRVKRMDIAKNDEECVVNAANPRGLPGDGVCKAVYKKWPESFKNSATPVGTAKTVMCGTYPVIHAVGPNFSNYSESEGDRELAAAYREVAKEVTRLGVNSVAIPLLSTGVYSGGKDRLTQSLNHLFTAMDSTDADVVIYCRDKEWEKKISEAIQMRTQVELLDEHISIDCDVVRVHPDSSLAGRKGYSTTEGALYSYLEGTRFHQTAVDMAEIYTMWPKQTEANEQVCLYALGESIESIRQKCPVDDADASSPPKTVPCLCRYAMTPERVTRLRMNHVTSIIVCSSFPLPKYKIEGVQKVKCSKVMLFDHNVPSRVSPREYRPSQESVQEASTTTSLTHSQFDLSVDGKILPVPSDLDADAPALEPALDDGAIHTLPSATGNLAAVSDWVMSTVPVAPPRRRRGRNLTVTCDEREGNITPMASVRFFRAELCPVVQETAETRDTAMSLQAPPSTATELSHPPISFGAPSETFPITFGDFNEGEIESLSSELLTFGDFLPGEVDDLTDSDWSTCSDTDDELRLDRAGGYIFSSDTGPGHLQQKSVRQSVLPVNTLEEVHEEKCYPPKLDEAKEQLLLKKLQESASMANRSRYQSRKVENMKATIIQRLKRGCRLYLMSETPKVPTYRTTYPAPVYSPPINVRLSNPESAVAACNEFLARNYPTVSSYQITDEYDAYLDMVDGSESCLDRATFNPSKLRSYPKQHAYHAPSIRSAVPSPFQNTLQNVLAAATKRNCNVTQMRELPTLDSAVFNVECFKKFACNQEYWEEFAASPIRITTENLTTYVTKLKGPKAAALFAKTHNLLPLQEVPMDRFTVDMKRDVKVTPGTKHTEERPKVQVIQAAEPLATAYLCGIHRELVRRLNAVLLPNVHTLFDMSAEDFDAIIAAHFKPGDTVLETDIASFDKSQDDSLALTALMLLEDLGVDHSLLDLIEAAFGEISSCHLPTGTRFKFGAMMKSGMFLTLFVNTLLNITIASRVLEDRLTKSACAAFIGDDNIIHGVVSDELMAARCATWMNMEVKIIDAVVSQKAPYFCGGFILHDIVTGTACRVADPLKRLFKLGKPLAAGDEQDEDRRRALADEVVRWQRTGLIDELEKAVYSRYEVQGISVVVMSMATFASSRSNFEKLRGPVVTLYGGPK
# Starred values were filed as active, the others as inactive; i = inactive; ? = inconclusive; & = joins results of further samples; [ ] = dose if it differs, or a comment. % is scaled to controls: 0 for no effect and ±100 for the full control effect; potency is read from the fitted curve at half-maximal effect.
SMILES,nsP2pro primary
C[C@]1(OC(=O)/C=C/c2ccccc2)C[C@H](O)[C@]2(O)C=CO[C@@H](O[C@@H]3O[C@H](CO)[C@@H](O)[C@H](O)[C@H]3O)C12 (stereo partly drawn),-6.2%[10 µM]
CC1=C(C(=O)Nc2ccc(C)cc2)C(c2ccccc2Br)N=C(Nc2nc3ccccc3o2)N1 (stereo not drawn),?
CCC(=O)O[C@@](Cc1ccccc1)(c1ccccc1)[C@@H](C)CN(C)C,-4.5%
O=C(NC[C@H]1CN(c2ccc(N3CCOCC3=O)cc2)C(=O)O1)c1ccc(Cl)s1,-23.6%&-1.6%
CCOC(=O)Oc1ccc(CCNC(=O)[C@H](CCSC)NC(C)=O)cc1OC(=O)OCC,-3.7%
Cc1cccc(N(C)S(=O)(=O)c2cc(-c3cnc(C4CC4)o3)ccc2C)c1,-18.2%
O=C(NCC1CCN(c2cc(-c3ccccc3)[nH]n2)CC1)c1ccc2nc[nH]c2c1,39.3%[activator]
Cc1cccc(-n2cc(-c3ccccc3)c3c(N4CCC(C)CC4)ncnc32)c1,5.3%
O=C(Cn1cc(CNCc2ccccc2)nn1)Nc1cc(C(F)(F)F)ccc1Cl,-6.5%
O=c1[nH]c(=O)n([C@H]2C[C@H](O)[C@@H](CO)O2)cc1Br,-6.0%
CN1c2cc(C(=O)N3CCN(c4ccccn4)CC3)ccc2C(=O)N2CCCCC21 (stereo not drawn),-7.6%
Fc1ccccc1CN1CCOC[C@H](Oc2cccnc2)C1,1.0%[39.2 µM]
NC(=O)c1cc[n+](CC2=C(C(=O)[O-])N3C(=O)[C@@H](NC(=O)Cc4cccs4)[C@H]3SC2)cc1,?
CN(C1CCc2c(c3ccccc3n2CC(=O)O)C1)S(=O)(=O)c1ccc(F)cc1 (stereo not drawn),-9.2%&-17.8%
O=C1CO[C@H]2CN(Cc3ccc4c(c3)OCO4)C[C@H]2N1Cc1ccc(F)cc1,i
CC1=C(C(=O)NCc2cccc(F)c2)C2(CCCCCC2)OC1=O,-12.3%
Nc1nn(-c2ccccc2)nc1C(=O)OCc1ccc(Cl)cc1,3.0%
O=C(COc1ccccc1)Nc1ccc2nc(SCCOc3ccccc3)sc2c1,-20.9%
O=c1cc(-c2ccncc2)oc2c(-c3ccc(CO)cc3)nccc12,-6.7%[39.2 µM]
O=S(=O)(NN1CCOCC1)c1ccc(Br)cc1,?
COC(=O)c1ccc(Cn2c(=O)cc(C)c3c(C)nn(C)c32)cc1,-22.9%
O=C(C(Cc1cccc(C(F)(F)F)c1)NS(=O)(=O)c1cc(F)c2c(c1)CCNC2)N1CCCC1 (stereo not drawn),4.3%
CC1CCC2(OC1)OC1CC3C4CC=C5CC(O)CC(O[C@@H]6OC[C@@H](O)[C@H](O)[C@H]6O)C5(C)C4CCC3(C)C1(O)C2C (stereo partly drawn),-12.4%[10 µM]
CCOC(=O)c1c(C)n(-c2ccc(OC)cc2)c2ccc(OC(=O)COc3ccccc3)cc12,-13.2%
CC(=O)c1cc(-c2ccc(F)cc2)n(CC(=O)NC(C)c2ccccc2)c1C (stereo not drawn),-25.2%
C/C(=C(/CCO)SSCC1CCCO1)N(C=O)Cc1cnc(C)nc1N (stereo not drawn),?
CCOc1cc(C)c(Cl)cc1S(=O)(=O)n1cnc2ccccc21,-2.8%[10 µM]
Cc1ccc(-c2nc3ccccn3c2Nc2ccc3c(c2)OCO3)o1,-6.8%
Cc1ccc(-c2cc3n(n2)CCCN(C(=O)CCc2cc(Cl)no2)C3)o1,8.91µM*
Cc1ccc(C)c(Cn2c(=O)n(CC3CCC(C(=O)N4CCOCC4)CC3)c(=O)c3sccc32)c1 (stereo not drawn),-16.7%
COc1ccc(CN(C)S(=O)(=O)c2nnc(NC(=O)C(C)C)s2)cc1OC,-7.9%
COC(=O)c1ccc(NC(=O)Cn2cnc3c2c(=O)n(C)c(=O)n3C)cc1,-11.0%
Cc1cn([C@H]2C[C@H](O)[C@@H](CO)O2)c(=O)nc1N,?
CCOc1ccccc1CNC(=O)c1ccc(-n2c(C)cc3c2CCC(C)C3)cc1 (stereo not drawn),-21.4%
Cc1cc(C)cc(NS(=O)(=O)c2ccc3c(c2)NC(=O)C(C)S3)c1 (stereo not drawn),-20.7%
CC(C)(C)OC(=O)N1CCN(c2cnc(NCc3ccc(-c4ccc(C#N)cc4)o3)cn2)CC1,?
COc1cccc(CNC(=O)[C@@H]2C[C@@H](O)CN2C2CCN(C(=O)c3nccc4ccccc34)CC2)c1,-12.7%
Cc1ccccc1CN1CCn2c(nn(CC3COc4ccccc4O3)c2=O)C1=O (stereo not drawn),i
O=C(NCc1ccc2c(c1)CCN2C(=O)c1ccccc1)Nc1cccc(C(F)(F)F)c1,-20.4%
C/C(=C\CCC1(C)C2CC3C(C2)C31C)C(=O)O (stereo not drawn),-9.1%
Cc1cc(C(=O)N2Cc3cnn(C)c3Nc3ccccc32)ccc1CNC(=O)N1CCC[C@H]1C(=S)N1CCCN(C)CC1,15.2%
COc1ccc(NC(=O)c2cnc[nH]2)cc1,-1.0%
CN(C(=O)CN1C(=O)CCSc2ccc(S(=O)(=O)N3CCCC3)cc21)c1ccccc1,-3.6%
CCc1nnc([C@@H]2CC(F)(F)CN2C(=O)CCn2cccn2)o1,3.3%
COc1cccc(-n2c(SCC(=O)Nc3ccc4c(c3)OCO4)nc3c([nH]c4ccccc43)c2=O)c1,-21.6%
CC(C)Oc1ccc(CNS(=O)(=O)c2cnc(N)nc2)cc1,-14.9%
Cn1cc(CN2CCN(c3cnccn3)CC2)c(-c2ccc(C3CCCCC3)cc2)n1,i
CCOc1cccc2sc(NC(=O)c3ccc(S(=O)(=O)N4CCCCC4C)cc3)nc12 (stereo not drawn),-8.3%
C#CCNC(=O)C1CCc2nnc(CNC(=O)c3ccc(Cl)cc3Cl)n21 (stereo not drawn),-6.7%
CC(C)(C)NCC(O)c1cc(O)cc(O)c1 (stereo not drawn),-12.7%

# Next section.
SMILES,nsP2pro primary
CCc1cnc(N2CCC3(CC2)C(=O)Nc2cc(OCC4CC4)c(OC)cc23)nc1,?
CC(C)CC(=O)N1CCCCCC1c1nc(-c2ccncc2)no1 (stereo not drawn),-0.7%
Cc1nc(C)c(C(=O)N2CCC(c3nnc(Cn4ccnc4)n3C)CC2)o1,-2.0%
C[C@]12CC[C@@H]3c4ccc(O)cc4CC[C@H]3[C@@H]1CC[C@H]2O,-22.3%
CC(=O)NCCCC(=O)N1CCC2(CC1)CC(NC(C)=O)c1ccccc1O2 (stereo not drawn),8.9%
O=C1C=CC[C@@H]2[C@H]3CCCN4CCC[C@@H](CN12)[C@@H]34,?
O=C(CCn1cccn1)Nc1cccc(C(F)(F)F)c1,-13.7%
CC(C)Oc1ccc(C(=O)Nc2nc3c(s2)CC(C(C)(C)C)CC3)cc1 (stereo not drawn),57.3%[activator]
COC(=O)[C@H](c1ccccc1Cl)N1CCC2SC(=O)C=C2C1 (stereo partly drawn),?
COc1c/c(=C2\C=c3ccccc3=N2)[nH]/c1=C/c1[nH]c(C)cc1C,-18.2%
Cc1ccc(-c2cc(C(=O)N(Cc3ccc(C(C)(C)C)cc3)Cc3ccco3)no2)cc1,-17.1%
COc1ccc(NC(=O)C(C)(C)Oc2nn(CC3CC3)c3ccc(CN4CCCC4)cc23)cc1,i
CCCN(CCC)C(=O)Cn1c(=O)n(Cc2ccc(C(=O)NCCc3ccc(OC)c(OC)c3)cc2)c(=O)c2ccccc21,-15.9%
CCC(C(=O)Nc1cc(-c2nc3cccnc3s2)ccc1C)c1ccccc1 (stereo not drawn),-25.1%
CC/C=C\C[C@H]1C(=O)C=C[C@@H]1CCCCCCCC(=O)O,11.1%
COc1cccc(CC(=O)Nc2ccc3nc(N4CCC(C)CC4)cc(C)c3c2)c1,-12.7%
O=C(/C=C/c1ccc(O)c(O)c1)O[C@@H]1CC(O)(C(=O)O)C[C@@H](OC(=O)/C=C/c2ccc(O)c(O)c2)C1O (stereo partly drawn),35.6%[activator]
c1ccc([C@H]2CN3CCSC3=N2)cc1,-6.7%&5.1%
COc1ccc(CCN2Cc3cc(NC(=O)Cc4cccs4)ccc3OCC2=O)cc1,-9.8%
O=C(NCc1ccccc1Cl)C(=O)NCC(c1cccs1)S(=O)(=O)c1ccccc1 (stereo not drawn),-18.4%

# Sorted by molecular weight (rising): part of the list above.
SMILES,nsP2pro primary
COc1cccc(CC(=O)Nc2ccc3nc(N4CCC(C)CC4)cc(C)c3c2)c1,-12.7%
COc1ccc(CCN2Cc3cc(NC(=O)Cc4cccs4)ccc3OCC2=O)cc1,-9.8%
O=C(/C=C/c1ccc(O)c(O)c1)O[C@@H]1CC(O)(C(=O)O)C[C@@H](OC(=O)/C=C/c2ccc(O)c(O)c2)C1O (stereo partly drawn),35.6%[activator]

# 7 of the compounds above, tab-delimited.
Structure	nsP2pro primary
CCCN(CCC)C(=O)Cn1c(=O)n(Cc2ccc(C(=O)NCCc3ccc(OC)c(OC)c3)cc2)c(=O)c2ccccc21	-15.9%
CCC(C(=O)Nc1cc(-c2nc3cccnc3s2)ccc1C)c1ccccc1 (stereo not drawn)	-25.1%
CC/C=C\C[C@H]1C(=O)C=C[C@@H]1CCCCCCCC(=O)O	11.1%
COc1cccc(CC(=O)Nc2ccc3nc(N4CCC(C)CC4)cc(C)c3c2)c1	-12.7%
O=C(/C=C/c1ccc(O)c(O)c1)O[C@@H]1CC(O)(C(=O)O)C[C@@H](OC(=O)/C=C/c2ccc(O)c(O)c2)C1O (stereo partly drawn)	35.6%[activator]
c1ccc([C@H]2CN3CCSC3=N2)cc1	-6.7%&5.1%
COc1ccc(CCN2Cc3cc(NC(=O)Cc4cccs4)ccc3OCC2=O)cc1	-9.8%

# (more compounds)
SMILES,nsP2pro primary
COc1cc(O)c(C(CC(=O)N2CCCC(CN3CCCCC3)C2)c2ccc3c(c2)OCO3)c(OC)c1 (stereo not drawn),-7.1%[39.2 µM]
Cc1ccc(-n2c(=O)c3c(cnn3C)n(Cc3ccccc3F)c2=O)cc1,-20.6%
CC1CCN(S(=O)(=O)c2cccc(C(=O)N(C)C3(C)CCS(=O)(=O)C3)c2)CC1 (stereo not drawn),-22.4%
CN1CCC(OC(c2ccccc2)c2ccccc2)CC1,3.4%
CC(C)(C)Nc1nc(C#N)nc(Nc2ccccc2)n1,2.0%
Cc1ccc2c(c1)C(=O)OC(C(=O)Nc1ccccc1C(=O)O)C2 (stereo not drawn),?
COc1ccc(Cl)cc1S(=O)(=O)N1CCN(S(=O)(=O)c2ccc3c(c2)OCCO3)CC1,-9.8%
COc1ccc(CNC(=O)C2CCN(c3nc4ccccc4[nH]3)CC2)c(OC)c1,-24.9%
COc1ccc(CCNC(=O)CCc2c(C)nc3c4c(C)cc(C)nc4nn3c2C)cc1OC,-19.5%
Cc1ccc(/C(=C\CN2CCCC2)c2ccccn2)cc1,-3.6%
CC(=O)NC1CC2(CCN(C(=O)CCC(=O)OC(C)(C)C)CC2)Oc2ccccc21 (stereo not drawn),-13.9%
Cc1csc(NC(=O)c2ccc3c(c2)OCC(=O)N(C)C3)n1,-4.0%[39.2 µM]
Cc1nc2nc(-c3ccc(Cl)cc3Cl)nn2c(C)c1CCC(=O)Nc1ccc(F)cc1,6.5%
C#CCOc1ccc2c(c1)c(-c1ccc(C(C)C)cc1)nc(=O)n2C(C)C,5.5%
COc1cc(N2CCOCC2)ccc1NC(=O)c1csc(-c2cccnc2)n1,-12.3%
O=[S+]([O-])(c1cccs1)N1CCn2c(nnc2C2CC2)C1,-7.8%[39.2 µM]
O=C(CSc1nc(=O)n(Cc2ccco2)c2c1CCC2)NCc1ccccc1Cl,-18.1%
CC1OC(OC2C(O)COC(O[C@@H]3[C@@H](O)[C@@H](O)[C@H](OC4C(OC(=O)[C@]56CCC(C)(C)CC5C5=CCC7[C@@]8(C)C[C@H](O)[C@H](OC9OC(CO)C(O)C(O)C9O)[C@@](C)(CO)C8[C@H](O)C[C@@]7(C)[C@]5(C)CC6)OCC(O)C4O)O[C@H]3C)C2O)C(O)C(O)C1O (stereo partly drawn),20.1%[5.1 µM]
O=C(NC1CCCCC1)O[C@@H]1CO[C@H]2[C@@H]1OC[C@@H]2n1nnnc1Sc1ccccc1,23.0%[39.2 µM]
COc1cc2nc(-c3cc4c(c(OC)c3)OCCNC4)cc(C)c2cc1OC,i
COc1ccc(NC(=O)Nc2nnc(N(C)C3CCCCC3)s2)c(OC)c1,-11.6%
CC1=NOC2(CCN(C(=O)c3ccccc3)C2)C1 (stereo not drawn),-2.6%[39.2 µM]
N#Cc1c(-c2cc(F)cc(-c3no[n+]([O-])c3C#N)c2)no[n+]1[O-],?
CCOc1ccc(CCNC(=O)CN2N=C(c3ccccc3)CCC2=O)cc1OCC,-15.6%
C[C@@]1(C(=O)O)CC[C@]2(C)CC[C@]3(C)C4=CC(=O)c5cc(O)c(O)cc5[C@]4(C)CC[C@@]3(C)[C@@H]2C1,-9.2%[10 µM]
Cc1ccccc1CNC[C@H]1O[C@@H]2C[C@@H](CC(=O)NCc3nccn3C)O[C@@H]2[C@@H]1O,i
O=C1C[C@]23C=CCN4CCC5c6cc7c(cc6N1[C@@]5(CC2)C43)OCO7 (stereo partly drawn),44.8%
CC(=O)N1CCN(Cc2nnc(C(=O)N3CCC[C@@H]3c3cccc(F)c3)n2-c2ccccc2)CC1,0.0%
COc1cc(NC(=O)Cn2nnnc2-c2ccccc2F)cc(OC)c1OC,-24.0%
COCC1CN(C)CC12CCN(C(=O)c1cncc(C)c1)CC2 (stereo not drawn),i
CCOC(=O)Nc1nc2ccccc2[nH]1,?
COc1ccc(-c2cc(C(F)(F)F)nc(SCC(=O)N(C)Cc3ccccc3)n2)cc1OC,17.1%
CC1=C(C(=O)NCc2ccccc2Cl)C2(CCCCCC2)OC1=O,-10.6%
O=C(NCc1ccc(Oc2ccccc2)cc1)c1nc(-c2cc(Br)c(O)c(Br)c2)no1,?
Cc1cc2c(s1)c1cnn(Cc3ccc(F)c(Cl)c3)c(=O)c1n2C,-1.2%
Cc1ccc(C(=O)N2CCCC(n3cc(-c4nc(C5CC5)no4)nn3)C2)s1 (stereo not drawn),i
CC1(C)CC2C(O)C3=C(CC(C)(O)C2C1)C(=O)OC3O (stereo not drawn),?

# Compound activity as filed in PubChem BioAssay.

# Not all compounds are listed; rates above refer to the full screens.
